Screening results as filed in PubChem.
Beta apoptosis – blocks beta cell apoptosis; INS-1E cytokine-induced death, ATP luminescence, 48 h; percent of positive-control rescue, neutral wells zero; protection from apoptosis, % (no concentration beside the values); 300,000 compounds, 0.8% hits;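 active = all replicates at 75% or more, or half of them and the mean; inconclusive = half reach 75% but not the mean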;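 note: 0% = cytokine-treated negative control wells and 100% = positive control rescue; higher means more ATP so stronger rescue from cytokine killing; wells of about 40 µL received 100 nL stock; the first replicate is given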
Calb FLC – affects C. albicans growth with fluconazole | C. albicans CaCi-2 (fluconazole-resistant clinical isolate) + fluconazole, Alamar Blue growth, 48 h | growth inhibition, % (concentration not given with the values) | 300,000 compounds, 0.57% hits;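 active = most replicates above 75%; inconclusive = exactly half above 75%; inactive = most below 75%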;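 note: all wells also contain fluconazole at 8 µg/ml as a sub-toxic cotreatment; 0% = median of DMSO wells and 100% = median of geldanamycin control wells; wells of about 8 µL received 7.5 nL stock; the first replicate is given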
AF4-AF9 inh – MLL-AF4/AF9 protein interaction inhibition; AlphaScreen, biotin-AF4 peptide binding to FLAG-AF9; P42568; 350,000 compounds, 0.47% hits; inhibition, % at 10 µM;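 active = every replicate reaching a set inhibition limit, whatever the replicate mean, cut at about 25% in these data; inconclusive = mean inhibition reaches that limit but some replicates miss it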;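 note: 0% = plate neutral control median and 100% = total signal loss; the record names both 10 and 1 µM as test concentration; the first replicate is given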
Target sequence (P42568 whole entry, looked up): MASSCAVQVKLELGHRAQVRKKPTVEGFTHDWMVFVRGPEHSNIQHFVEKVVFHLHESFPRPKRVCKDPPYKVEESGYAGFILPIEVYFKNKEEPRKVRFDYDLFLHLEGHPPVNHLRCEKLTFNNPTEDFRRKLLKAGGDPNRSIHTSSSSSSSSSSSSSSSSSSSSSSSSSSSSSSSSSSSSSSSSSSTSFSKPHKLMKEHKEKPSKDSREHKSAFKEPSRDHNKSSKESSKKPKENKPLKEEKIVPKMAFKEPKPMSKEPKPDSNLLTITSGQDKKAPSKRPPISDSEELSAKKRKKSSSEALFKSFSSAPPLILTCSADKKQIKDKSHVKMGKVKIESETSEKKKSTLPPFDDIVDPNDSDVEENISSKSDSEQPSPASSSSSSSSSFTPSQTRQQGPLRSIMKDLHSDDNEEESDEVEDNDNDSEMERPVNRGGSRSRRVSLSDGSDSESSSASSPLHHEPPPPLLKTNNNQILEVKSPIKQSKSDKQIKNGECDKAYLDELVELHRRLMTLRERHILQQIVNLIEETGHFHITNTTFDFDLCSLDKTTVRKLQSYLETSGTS
rRNA inh HTS – selective bacterial rRNA inhibition in E. coli; E. coli WT GFP vs humanized-ribosome RFP mutants, fluorescence, 24 h; hits give low values; DMSO median 0, no signal -100; GFP signal change (wild-type ribosome), % (concentration not given with the values); 350,000 compounds, 1.6% hits;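 active = significant combined selectivity score with lowered wild-type GFP, culture density cut under 30%, mutant RFP and density less affected; inactive = any of these conditions unmet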; note: one replicate is shown; some compounds called inactive have numbers as strong as hits
FGF22 binding – shifts melting point of recombinant human FGF22; Q9HCT0; 340,000 compounds, 1.5% hits; calls only at 9.99 µM; recombinant FGF22 thermal shift, SYPRO orange fluorescence; percent of sucrose octasulfate shift, DMSO zero;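 active = melting point raised past a set limit in the mean and every replicate; inconclusive = no clear call; three in four hits are not shown here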
Target sequence (Q9HCT0 whole entry, looked up): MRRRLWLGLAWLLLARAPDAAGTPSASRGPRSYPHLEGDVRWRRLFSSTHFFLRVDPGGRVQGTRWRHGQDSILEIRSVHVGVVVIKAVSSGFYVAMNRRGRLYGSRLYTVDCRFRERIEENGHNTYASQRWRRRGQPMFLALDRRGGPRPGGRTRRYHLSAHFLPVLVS
T cruzi repl – T. cruzi replication inhibition; T. cruzi beta-gal in NIH3T3, luminescence, 90 h; 300,000 compounds, 1.4% hits; inhibition, % (no concentration beside the values);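 active = mean inhibition across valid replicates above about 55%, limit read from the data; inconclusive = mean below that limit but half or more replicates reach it; inactive = mean below it, under half of replicates reach it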;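 note: signal also drops with host cell toxicity which is not excluded here; 0% = plate median of DMSO wells and 100% = zero luminescence signal; higher percent means less beta-gal luminescence so fewer parasites; stock transfer was 50 nL into about 50 µL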
ALR inh – blocks human ALR sulfhydryl oxidase activity; P55789; purified ALR, DTT oxidation, H2O2 HRP-luminol luminescence; AID 485317; inhibition, % (no concentration beside the values); 290,000 compounds, 3.8% hits;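 active = mean and each replicate at 75% or more; inconclusive = only one of the two met; inactive = neither met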;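 note: stock transfer was 7.5 nL into about 7.5 µL; 0% = neutral wells and 100% = wells with inactivated enzyme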
Target sequence (P55789 whole entry, looked up): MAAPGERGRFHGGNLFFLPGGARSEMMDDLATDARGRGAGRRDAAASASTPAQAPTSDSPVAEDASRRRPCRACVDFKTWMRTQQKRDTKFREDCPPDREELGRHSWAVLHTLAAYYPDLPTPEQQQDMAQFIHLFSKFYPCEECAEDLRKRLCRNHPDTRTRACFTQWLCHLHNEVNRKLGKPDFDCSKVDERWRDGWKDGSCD
RanGTP-Impb inh – disruptors of Ran-importin-beta complex formation – biochemical, FRET, CFP-Ran, YFP-importin-beta, homogeneous, primary screen; cell-free CFP-Ran/YFP-importin-beta FRET ratio; inhibition, % (test concentration not listed); 300,000 compounds, 1.1% hits;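 active = most replicates above 15%; inconclusive = exactly half above 15%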;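 note: 0% = DMSO wells and 100% = Ran loaded with GDP instead of GTP; wells of about 40 µL received 100 nL stock; the first replicate is given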
rRNA inh HTS OD600 – second read-out of rRNA inh HTS, no call of its own (marks repeat the call); OD600 change, %; measured here: OD600 growth;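 optical density of the mix in the first replicate; 0 = DMSO median and -100 = no signal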
rRNA inh HTS RFP – recorded beside rRNA inh HTS, whose call it bears; RFP signal change, %; measured here: RFP humanized mutant strains;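 first replicate; 0 = DMSO median and -100 = no signal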
Numbers without * were called inactive; i = inactive; ? = inconclusive; . = not tested or not shown; & = joins results of further samples. A portion of the library, so the mix of outcomes need not match the whole.

SMILES | Beta apoptosis | Calb FLC | AF4-AF9 inh | rRNA inh HTS | rRNA inh HTS OD600 | rRNA inh HTS RFP | FGF22 binding | T cruzi repl | ALR inh | RanGTP-Impb inh
O=C(c1cnsn1)N1CCN(c2ccccn2)CC1 | -0.7 | -1.3 | . | . | . | . | . | 22.4 | -28.3 | 0.4
N#Cc1cn(N2CCCCC2)c(=O)[nH]c1=O | . | -4.3 | -2.2 | 6.1 | 4.8 | -4.8 | i | -4.1 | . | -1.6
COc1cc(C(=O)NCC(=O)N/N=C/c2cccs2)cc(OC)c1OC | -6.9 | -14.1 | 1.3 | 9.1 | 6.9 | 0.8 | i | -5.2 | -17.0 | ?
COc1ccc(CCNC(=O)CSc2nnc(CNC(=O)c3cc(OC)c(OC)c(OC)c3)o2)cc1OC | -1.9 | -4.8 | 1.3 | 1.6 | 2.6 | -0.2 | i | 11.0 | -24.7 | 4.3
COCCN1CCn2c(nc3cc(NC(C)=O)ccc32)C1 | -3.4 | -1.0 | -12.7 | 13.6 | 11.6 | 1.1 | i | -4.3 | -8.7 | -3.0
COc1ccccc1/C=C/C=C1\Oc2c(ccc(O)c2CN(C)C)C1=O | -9.0 | 1.5 | . | 34.1 | -19.7 | 0.3 | i | 4.8 | 59.6 | -329.2
CC1=C(C(=O)Nc2ccc(Cl)cc2)C(c2ccncc2)C(C#N)=C(SCC(N)=O)N1 (stereo not drawn) | 3.9 | -18.0 | -14.2 | -1.8 | 0.7 | 0.7 | i | -10.0 | -1.7 | 2.2
O=[N+]([O-])c1ccccc1/C=N/NC1=NCCN1 | -1.8 | -3.0 | . | 12.7 | 4.9 | -2.3 | i | 13.5 | -5.8 | 5.6
CCOc1ccccc1CNC(=O)c1ccc2nc(N3CCOCC3)sc2c1 | 4.9 | -4.1 | -1.4 | -26.8 | -43.8 | 3.4 | i | 10.5 | -11.0 | 0.0
C/C(=C\C(=O)c1ccccc1)Nc1cccc(O)c1 | 3.3 | 1.2 | 16.8 | 10.2 | 14.1 | -0.7 | i | -3.1 | 60.7 | 3.6
Cc1c(NC(=O)C(C)OC(=O)[C@@H](NC(=O)c2ccccc2)C(C)C)c(=O)n(-c2ccccc2)n1C (stereo partly drawn) | -5.7 | -19.2 | . | . | . | . | . | -10.4 | -2.2 | 1.3
CCCCCCn1nc(C(=O)N(CCOC)c2c(N)n(CCCC)c(=O)[nH]c2=O)c2ccccc2c1=O | 0.3 | -17.9 | 2.2 | 10.0 | 13.7 | 1.0 | i | 10.5 | -37.3 | -1.8
O=C(O)c1cccc(Nc2ccc3nonc3c2[N+](=O)[O-])c1 | -2.1 | 0.5 | -4.1 | -4.7 | -0.7 | -0.9 | i | 3.5 | -15.4 | -2.9
Cc1cc(Cl)c(OCCCSc2nc(C)cc(=O)[nH]2)c(Br)c1 | 2.8 | 15.3 | -3.7 | 14.3 | 2.8 | -2.6 | i | 6.7 | -1.4 | 6.3
COc1ccc(S(=O)(=O)N2CCN(Cc3ccc(OC)c(OC)c3)CC2)cc1 | -5.8 | 5.8 | 1.2 | -4.2 | -2.8 | 0.7 | i | 12.8 | -3.3 | 5.0
N/C(=N\OC(=O)c1cccc(F)c1)c1ccccc1 | -1.7 | -14.2 | . | . | . | . | . | -13.8 | -2.6 | -3.2
COc1ccc(CCNc2cc(C)nc3c(-c4ccccc4OC)cnn23)cc1OC | 4.6 | 9.1 | -1.7 | -20.0 | -19.8 | -0.7 | i | 4.7 | -0.3 | -1.5
Cn1cc(Br)c(C(=O)NNC(=O)Cc2ccc(Cl)cc2)n1 | -4.8 | -7.0 | -0.9 | -0.5 | -2.8 | 0.4 | i | 6.6 | . | 5.1
O=C(NNC(=O)c1ccc([N+](=O)[O-])cc1)c1ccncc1 | -5.8 | -2.7 | . | . | . | . | . | -0.2 | -5.8 | 2.9
Cc1cc([N+](=O)[O-])c(C)cc1-c1ccc(/C=N/NC(=O)c2cccnc2)o1 | 6.1 | 5.5 | 2.1 | 2.9 | 3.6 | 3.2 | i | -11.3 | . | ?
Fc1ccc(OCc2nnc(SCCN3CCOCC3)o2)cc1 | -0.3 | -7.8 | . | . | . | . | . | 8.7 | -0.4 | 1.4
S=C(NCCC1=CCCCC1)NCc1ccco1 | 4.6 | -11.7 | 5.1 | -6.0 | -5.1 | 4.0 | i | 17.7 | . | -1.7
CN(Cc1ccco1)C(=O)c1ccc(CNS(=O)(=O)c2ccc3c(c2)C(C)(C)C(=O)N3C)cc1 | -0.8 | -3.3 | 0.0 | 8.2 | 9.9 | 4.0 | i | -8.3 | -2.4 | ?
CCOc1ccc(CCN2CN(C3CCCCC3)CNC2=S)cc1OCC | -11.0 | 0.9 | 3.1 | . | . | . | i | -17.4 | -11.5 | 0.8
Cc1cc(C(=O)OCC(=O)Nc2ccccc2C(F)(F)F)on1 | 0.1 | . | 5.4 | 16.8 | 8.3 | 2.9 | i | . | -3.8 | .
CC1CCN(c2ccc([N+](=O)[O-])cc2C(=O)N2CCOCC2)CC1 | -1.8 | . | -0.9 | -2.6 | 1.3 | 1.8 | i | -1.3 | 5.4 | .
CCn1c(SC(C)C(=O)NCC2CCCO2)nc2ccccc21 (stereo not drawn) | -0.9 | . | -1.5 | 4.6 | 3.7 | -0.8 | i | . | -3.1 | .
COc1ccccc1-c1nnc(SCC(=O)O)n1-c1ccc(C)cc1 | -3.8 | -1.9 | -0.4 | 7.2 | 5.4 | -0.3 | i | -5.7 | . | -3.1
O=C(Nc1ccc(N2CCN(C(=O)c3cccs3)CC2)c(Cl)c1)c1ccco1 | -0.4 | -18.0 | . | -1.4 | 10.4 | -0.6 | . | -5.1 | 1.0 | 1.7
COc1cc(C(=O)Nc2c(C(=O)N3CCOCC3)oc3ccccc23)cc(OC)c1OC | -1.2 | -1.2 | -4.7 | -7.6 | -5.6 | -2.4 | i | -5.5 | -3.7 | 2.4
c1cc2c(nn1)CCc1nonc1-2 | . | 2.0 | . | . | . | . | . | -16.1 | -3.3 | 4.5
COc1ccc(NC(=O)N(C)C[C@H]2Oc3c(NC(=O)Nc4ccccc4)cccc3C(=O)N([C@H](C)CO)C[C@@H]2C)cc1 | -1.7 | . | -0.8&-0.2 | -0.1&11.1 | 8.0&2.4 | -2.0&-6.4 | i | . | -4.0 | .
CCCCC(=O)N=c1sc2cc(S(C)(=O)=O)ccc2n1C | -1.1 | 56.0 | . | . | . | . | . | 6.0 | -9.0 | -1.9
CCOc1ccccc1NC(=O)Cc1coc2ccc(C)cc12 | -1.8 | -16.5 | -3.0 | -42.6 | -35.7 | -8.7 | . | -21.9 | 0.4 | 5.7
COc1ccc(N(C)C(=O)c2onc3c2CCCC3)cc1 | -2.6 | 1.5 | 1.1 | 3.4 | 1.5 | -3.6 | i | -2.4 | -5.5 | -1.9
COc1ccccc1CN1CCN(C(=O)c2ccncc2)CC1 | -6.1 | -0.1 | . | . | . | . | . | 5.7 | -4.4 | 0.4
CCOC(=O)c1c(C)n(C)c2c(C)cc(O)c(OC(C)=O)c12 | -2.9 | -3.1 | . | . | . | . | . | -1.8 | . | -1.3
CCOC(=O)N1CCN(S(=O)(=O)CCNC(=O)c2ccc(OC)cc2)CC1 | -6.7 | -3.2 | -7.1 | 6.1 | 7.4 | -1.1 | i | -5.1 | -0.9 | -2.4
Cn1c(=O)c(=O)n(C)c2cc(S(=O)(=O)N3CCOCC3)ccc21 | 3.2 | -0.8 | . | 9.9 | 10.8 | -0.5 | . | -12.3 | 1.1 | -3.2
CCOC(=O)c1cnc(SCC)[nH]c1=O | -8.5 | -4.5 | . | . | . | . | . | -10.5 | -2.5 | 3.7
COc1cccc(CNc2nc3nc(C)cc(=O)n3[nH]2)c1 | -5.9 | -4.5 | . | . | . | . | . | -10.1 | 4.6 | -1.3
COc1ccc(S(=O)(=O)N2CCN(CC(=O)Nc3ccccc3Cl)CC2)cc1 | . | 2.1 | -1.0 | 10.9 | 9.8 | -3.1 | i | 19.1 | 8.2 | -2.6
Cc1cc(O)c2c(CN3CCN(Cc4ccccc4)CC3)cc(=O)oc2c1 | -4.4 | 19.4 | -2.9 | -0.3 | -13.3 | 7.3 | i | -7.6 | 47.6 | 2.3
S=c1[nH]cnc2sc(Nc3ccccc3)nc12 | 52.4 | 10.9 | -3.9 | -8.7 | -35.7 | -3.5 | i | 21.3 | -2.8 | -3.8
COc1ccc(NS(=O)(=O)c2ccc3nc(COc4ccc5ccccc5c4)[nH]c3c2)cc1 | 17.2 | 5.6 | . | . | . | . | . | 16.0 | . | 3.6
C=CCNC(=S)NN=C1CCCCCCC1 | 2.5 | -16.5 | 1.4 | 11.8 | 6.5 | -0.4 | i | -13.3 | 1.2 | 1.3
Cc1ccc(-n2c(SCC(=O)Nc3ccc(N4CCOCC4)cc3)nc3ccccc3c2=O)cc1 | -4.2 | -13.7 | 3.5 | 13.4 | 13.4 | 2.0 | i | 13.6 | -3.8 | 3.7
CC(C)Cn1c(N)c(C(=O)CSc2ccc3c(c2)OCCO3)c(=O)n(C)c1=O | 94.2* | 5.3 | . | . | . | . | . | 28.6 | . | -1.2
CC(C)OC(=O)/C(=C/c1ccco1)c1ccccc1 | . | -9.3 | -6.4 | -0.6 | 14.4 | -0.1 | i | -16.3 | . | 3.7
COc1cc(OC)c2c(-c3ccccc3)cc(=O)oc2c1C(CCN1CCCCC1)c1ccc2c(c1)OCO2 (stereo not drawn) | 17.5 | -17.3 | 36.1* | -53.7 | -80.8 | -24.1 | i | 52.2 | . | 1.7

More compounds:
SMILES | Beta apoptosis | Calb FLC | AF4-AF9 inh | rRNA inh HTS | rRNA inh HTS OD600 | rRNA inh HTS RFP | FGF22 binding | T cruzi repl | ALR inh | RanGTP-Impb inh
O=C1C=CN2CCCCC2CC1 (stereo not drawn) | 25.2 | . | 11.1 | 6.1 | 7.4 | 6.5 | i | . | 5.0 | .
O=C(COC(=O)CCSc1ccc(Cl)cc1)NCc1ccco1 | -8.9 | 26.5 | -0.4 | 1.2 | -4.3 | -0.4 | i | -3.3 | 4.0 | 0.1
COc1cccc(NC(=O)CSc2nc3ccsc3c(=O)n2-c2ccc(C(=O)O)cc2)c1 | -5.2 | 42.2 | -0.2 | -5.0 | 6.6 | 0.3 | i | -20.2 | -30.2 | -0.3
NC(=O)c1ccccc1NC(=O)CS(=O)(=O)Cc1ccccc1 | -4.0 | 0.4 | . | . | . | . | . | -1.6 | -3.0 | 1.5
Cc1ccc(OCCC(=O)Nc2ccc(F)c(F)c2)cc1 | -1.0 | -30.3 | -3.6 | -8.7 | 0.6 | -0.3 | i | 14.0 | . | -2.4
CCCCCCOc1ccc(/C(N)=N/O)cc1 | 0.1 | 1.9 | . | . | . | . | . | 28.6 | 98.8* | 1.1
N#Cc1ccsc1NC(=O)CN1C(=O)NC2(CCCC2)C1=O | 0.4 | -1.1 | -2.9 | 12.8 | 11.6 | 5.7 | i | -11.3 | 0.9 | -6.4
